High-throughput results deposited in PubChem by several laboratories.
GALR2 agonist – activates the human galanin receptor 2 | AID 803 | GALR2-expressing cells, agonist activation read-out | activation, %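 (tested at 5 µM)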 | O43603 | hit rate 0.48% among 140,000;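 active = above mean plus 3 SD of all compounds, about 5% in these data, not always enough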;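 also: 0% = vehicle buffer wells and 100% = reference agonist at full effect; tested in CHO reporter cells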
HSV augment – HSV replication enhancement. maximum fold increase. HSV replication augmentation in cells, fold increase. AID 1956. hit rate 0.005% among 220,000;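 active = peak rise of 1.5-fold or more in the series; inconclusive = self-fluorescent or not available for retest; tested in PC3 cells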;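 also: first round at 10 µM; read as green reporter fluorescence; hits show the peak of a series up to 25 µM; 1 = signal of infected wells without compound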
RGS16-Gao – RGS16-Galphao interaction regulator (human) | hit rate 0.38% among 220,000 | AID 1441 | bead-based flow cytometry RGS16-Galphao binding, fluorescence; actives lie on both sides | binding response (% of control), % at 10 µM | O15492+P09471;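 active = below 25% or above 175%, edge rows of some plates excepted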;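 also: Galphao activated by GDP with aluminum fluoride before binding; 100% = wells without compound and 0% = beads without RGS; some results beyond the cut were filed as inactive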
PKD1 kinase inh – blocks activity of human protein kinase D1; hit rate 0.056% among 200,000; inhibition, %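 (about 10 µM by stock and volumes)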; Q15139; PKD1 kinase fluorescence polarization assay;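 active = inhibition of 50% or more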;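 also: controls were vehicle for no effect and a reference inhibitor for full effect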
Target sequence (Q15139 whole entry, looked up): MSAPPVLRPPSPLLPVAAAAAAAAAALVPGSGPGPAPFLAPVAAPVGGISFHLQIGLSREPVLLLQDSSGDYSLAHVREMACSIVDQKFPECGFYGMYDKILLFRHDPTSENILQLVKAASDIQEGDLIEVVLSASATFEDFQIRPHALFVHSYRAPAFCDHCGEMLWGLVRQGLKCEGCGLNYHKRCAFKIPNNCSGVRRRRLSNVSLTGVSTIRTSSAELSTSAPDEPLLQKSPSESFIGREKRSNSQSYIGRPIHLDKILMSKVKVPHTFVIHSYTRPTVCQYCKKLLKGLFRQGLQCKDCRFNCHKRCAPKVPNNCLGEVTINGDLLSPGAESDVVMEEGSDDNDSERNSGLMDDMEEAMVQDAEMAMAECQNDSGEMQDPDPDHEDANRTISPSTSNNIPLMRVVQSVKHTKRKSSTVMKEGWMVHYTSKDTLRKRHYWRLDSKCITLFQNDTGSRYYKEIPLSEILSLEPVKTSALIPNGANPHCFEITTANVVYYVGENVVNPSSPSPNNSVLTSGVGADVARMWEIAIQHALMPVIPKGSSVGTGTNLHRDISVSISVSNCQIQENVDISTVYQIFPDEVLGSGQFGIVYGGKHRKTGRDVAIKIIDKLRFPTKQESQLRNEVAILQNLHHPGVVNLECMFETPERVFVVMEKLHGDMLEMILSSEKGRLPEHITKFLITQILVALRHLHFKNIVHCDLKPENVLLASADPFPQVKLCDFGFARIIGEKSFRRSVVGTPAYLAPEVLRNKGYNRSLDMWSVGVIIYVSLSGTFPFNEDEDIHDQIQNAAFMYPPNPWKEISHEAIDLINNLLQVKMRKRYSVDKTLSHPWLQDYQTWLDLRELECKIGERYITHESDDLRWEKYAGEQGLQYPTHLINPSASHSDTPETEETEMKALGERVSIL
Insulin prom inh – TRM-6 insulin promoter activity inhibition. inhibition, % at 2 µM. TRM-6 cells (human fetal islet line), insulin promoter-eGFP reporter, imaging; reporter expression induced with tamoxifen. hit rate 0.9% among 130,000;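 active = inhibition above the mean plus 3 SD, with well images judged a real hit on visual review, cut at about 60% in these data, passing the limit was not always enough; inconclusive = inhibition over the cutoff but images rejected on review; inactive = inhibition not above the cutoff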
Insulin prom inh cell count – second read-out of Insulin prom inh, no call of its own (marks repeat the call); normalized cell count, %; measured here: cell count, toxicity; reference of the scale not given here;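 cells exposed to compound for 48 h; stained nuclei by imaging scaled within each plate; lower means fewer cells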
HSV augment primary fold – second read-out of HSV augment, no call of its own (marks repeat the call); fold increase; compound at 10 µM; measured here: primary screen fold increase 10 uM; tested in PC3 cells;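 GFP signal in the first replicate; 1 = infected wells without compound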
* hit, by the source's call; i = inactive; ? = inconclusive; / = not tested or not shown; [ ] = remark or other dose.

SMILES	PKD1 kinase inh	RGS16-Gao	HSV augment primary fold	GALR2 agonist	Insulin prom inh	HSV augment	Insulin prom inh cell count
CCOC(=O)N1CCC(=NNC(=O)c2ccc(O)cc2)CC1	2.5	99.3	1.07	0.0	/	i	/
CCCCN(Cc1ccccc1)c1ncnc2nc[nH]c12	-0.7	109.5	0.86	-0.5	30.0	i	108.7
COc1ccc(-c2noc(CCC(N)=O)n2)cc1OC	35.4	104.0	0.84	-1.2	/	i	/
COc1ccccc1-c1cc(C(=O)Nc2ccc(F)cc2F)no1	-8.1	100.1	0.96	-0.2	/	i	/
COc1ccc(S(=O)(=O)N2CCN(CCC(=O)Nc3ccc(F)cc3)CC2)cc1	-26.8	98.9	0.89	-0.7	-22.2	i	110.4
O=C(CSCc1ccc(C(=O)O)cc1)Nc1ccc2ccccc2c1	/	103.0	0.94	/	/	i	/
Cc1ccc2c(c1)C1CN(C)CCC1N2Sc1ccccc1[N+](=O)[O-] (stereo not drawn)	/	104.6	0.54	/	/	i	/
Cc1ccc(-c2nn(C)c(=O)c3ccccc23)cc1CN1CCCCC1	/	95.3	0.93	/	/	i	/
O=C(/C=C/c1ccco1)Nc1ccc(CN2CCOCC2)cc1	/	97.8	0.93	/	/	i	/
O=S(=O)(c1ccc(-c2ccon2)s1)N1CCN(CCN2CCOCC2)CC1	/	101.2	1	/	/	i	/
O=c1c2ccccc2nc(COc2ccccc2)n1/N=C/c1cc([N+](=O)[O-])ccc1O	-7.8	92.2	0.73	-1.8	/	i	/
CC(C)(C)C(=O)Nc1nc(-c2ccc3c(c2)OCO3)cs1	-10.2	91.6	/	-2.1	6.8	/	83.1
N#Cc1c(N)n(CCOC(=O)c2ccc(Cl)cc2)c2nc3ccccc3nc12	-1.6	93.5	1.01	7.8*	3.7	i	132.9
CC1(C)Cc2c(sc3nnn(Cc4ccc(Cl)cc4)c(=O)c23)CO1	-2.3	109.4	0.93	0.9	30.6	i	108.2
Cc1cc(NC(=O)/C=C/c2ccccc2)no1	-5.1	56.6	0.93	-1.4	-13.3	i	125.3
Cc1noc(C)c1COC(=O)CCOc1ccccc1	-7.8	96.3	0.93	-0.5	/	i	/
Cc1ccc(-n2[nH]c(=O)c3cccnc32)cc1	-9.5	110.1	0.93	-1.4	64.3	i	137.0
COC(=O)c1cn(CC(=O)N2CCCCCC2)c2ccccc12	4.5	95.8	1.07	-0.8	-381.1	i	57.5
Cc1cccc(C)c1NC(=S)NCc1ccncc1	/	113.2	1.12	/	/	i	/
Cc1ccc(N2C(=O)c3ccccc3C2Nc2ccccc2F)nc1 (stereo not drawn)	5.9	117.4	1	-1.6	/	i	/

Other records.
SMILES	PKD1 kinase inh	RGS16-Gao	HSV augment primary fold	GALR2 agonist	Insulin prom inh	HSV augment	Insulin prom inh cell count
Cc1nnc(SCC(=O)Nc2nc3c(s2)CC(C)CC3)s1 (stereo not drawn)	-4.8	101.2	0.833	-2.0	25.0	i	92.5
O=S(=O)(Nc1cc(Sc2cccc3cccnc23)c(O)c2ccccc12)c1ccccc1	-5.8	83.4	0.74	0.4	-169.0	i	30.8
COc1ccc(-n2c(SCC(=O)Nc3sc4c(c3C#N)CCCC4)nnc2-c2ccc(O)cc2)cc1	5.2	103.6	0.74	-0.6	-6.2	i	61.0
COc1ccc(OCC(=O)NCCCn2ccnc2)cc1	/	101.3	0.83	/	/	i	/
CCOC(=O)C1=C(C)Nc2ccccc2N=C1NC(=O)CCCN1C(=O)c2ccccc2C1=O	-11.8	102.0	0.79	-0.2	/	i	/
O=C(CCc1ccccc1)Nc1ccc(F)cc1F	3.4	105.2	0.91	-1.4	-450.0	i	74.7
O=C(O)C1CN(C(=O)c2cccc(Br)c2)C1	3.8	107.3	1.09	/	/	i	/
O=C(CN(c1cccc(C(F)(F)F)c1)S(=O)(=O)c1ccc(Cl)c([N+](=O)[O-])c1)NCc1ccccc1Cl	-10.2	49.5	0.51	0.6	-10.7	i	80.8
Cn1nc(C(=O)Nc2nc3ccc(S(C)(=O)=O)cc3s2)ccc1=O	2.9	96.8	/	0.4	8.1	/	89.4
CC(C)c1ccccc1NC(=O)Nc1ccc(F)cc1F	/	99.7	0.92	/	/	i	/
CCOC(=O)C1=C(C)NC(C)=C(C(=O)OCC)C1C1=COCCO1	-2.9	101.5	0.92	-1.1	/	i	/
CSc1ccc(C(=O)C2CCCN(Cc3cccn3-c3cccnc3)C2)cc1 (stereo not drawn)	-7.0	94.5	0.97	/	/	i	/
Cc1ccc(Cn2c(Sc3nnc(C)s3)nc3c2c(=O)[nH]c(=O)n3C)cc1	-6.5	95.6	0.84	-4.3	/	i	/
Cc1c(NC(=O)c2ccc(Cl)nc2)cccc1-c1nc2cccnc2s1	/	96.1	0.96	/	/	i	/
O=c1cc2n(c(=O)[nH]1)CCC1=C2CCCC1	12.8	101.0	0.63	-0.6	36.4	i	38.3
Cc1ccc(/C=N/NC(=O)CCSc2ccccc2)cc1	-6.8	95.0	0.92	-0.7	-5.7	i	142.4
O=C(O)c1ccc(N/N=C/c2ccnc3ccccc23)cc1	/	102.7	0.84	/	/	i	/
N=C1c2ccccc2CN1NC(=O)c1cccc(S(=O)(=O)N2CCOCC2)c1	5.0	236.3*[activator]	/	0.2	/	?	/
CCOC(=O)C(C(C)=O)=C1SC2CS(=O)(=O)CC2S1 (stereo not drawn)	11.7	105.4	0.96	-1.1	64.3	i	130.4
CC(C)(C)c1ccc(OCCCC(=O)N2CCOCC2)cc1	4.3	103.2	0.9	/	/	i	/

The list goes on:
SMILES	PKD1 kinase inh	RGS16-Gao	HSV augment primary fold	GALR2 agonist	Insulin prom inh	HSV augment	Insulin prom inh cell count
C#Cc1ccc([C@@H]2C=C(C(=O)N3CCOCC3)O[C@H](OCC)[C@H]2CCCO)cc1	3.2	102.2	0.92	/	/	i	/
CCc1c(C(C)S(=O)(=O)c2ccc(C)cc2)[nH]c(=O)n1-c1ccc(OC(F)(F)F)cc1 (stereo not drawn)	-4.8	66.2	1.04	-1.1	-26.7	i	105.4
Cc1ccc(S(=O)(=O)N(C)C)cc1-n1c(SCC(=O)Nc2ccc(F)cc2)nc2ccccc2c1=O	-1.5	105.6	0.83	-0.3	/	i	/
Cc1ccc(-c2nnc(SCC(=O)Nc3ccc(S(=O)(=O)N4CCCCCC4)cc3)o2)cc1	1.1	104.0	1.25	-2.9	42.9	i	107.2
CCCn1c(NC(=O)c2ccc(Cl)c(S(=O)(=O)N3CCCC3)c2)nc2ccccc21	-0.6	101.1	0.9	-2.4	/	i	/
N#CCCN(Cc1cccnc1)C(=S)NC(=O)C1CC1	-4.6	105.5	0.9	/	40.7	i	113.2
COc1ccc(N(C(=O)c2cccnc2)S(=O)(=O)c2cccs2)cc1	0.2	101.9	1.06	/	/	i	/
CC(=O)OC(C)C[N+](C)(C)C (stereo not drawn)	-7.4	/	1	0.9	17.4	i	163.4
Cc1ccc(N2C(=O)N(CC(=O)Nc3cc(C)cc(C)c3)C(=O)C2C)cc1 (stereo not drawn)	-7.0	100.9	1.03	/	0.0	i	64.4
COc1ccc(OCCOc2ccccc2[N+](=O)[O-])cc1	0.3	179.8*[activator]	1.03	-0.4	24.1	i	61.7
O=C(Cn1nnc(-c2ccc3c(c2)OCO3)n1)N1CCOCC1	-0.9	103.2	1.23	-0.2	-120.0	i	75.9
O=P(c1ccccc1)(c1ccccc1)C(c1ccco1)N1CCOCC1 (stereo not drawn)	0.9	103.8	0.9	-2.7	-14.3	i	69.9
COc1ccccc1N1CCN(S(=O)(=O)c2ccccc2F)CC1	2.0	102.5	0.9	-2.4	-63.6	i	104.6
CN(CCNC(=O)CN1CCN(Cc2ccccc2Cl)C1=O)Cc1ccccc1	-1.9	104.6	0.95	-2.9	-48.6	i	99.4
Cc1cccc(-c2noc(CN(C(=O)C(c3ccccc3)c3ccccc3)C(C)C)n2)c1	-6.2	101.0	0.89	-2.0	/	i	/
Fc1cc(F)cc(-c2oncc2-c2nnnn2-c2ccccc2)c1	-1.6	101.9	0.92	-2.4	50.0	i	140.6
CCOC(=O)Nc1cc2c(C)cc(=O)oc2cc1C	-8.3	99.7	/	-0.9	/	/	/
COC(=O)c1cc2c(=O)n3ccccc3nc2n(C(C)C)c1=N	-11.7	/	/	17.3*	12.1	/	116.8
O=C(NCc1cccnc1)c1c(F)c(F)c(F)c(F)c1F	-5.1	103.1	0.97	-1.0	-272.2	i	36.6
Cc1ccc(N2C(=O)CC(Sc3ccccc3C(=O)O)C2=O)cc1C (stereo not drawn)	2.0	102.4	0.94	/	/	i	/

Filtered by structure, those above containing a CF3 group (2)
SMILES	PKD1 kinase inh	RGS16-Gao	HSV augment primary fold	GALR2 agonist	Insulin prom inh	HSV augment	Insulin prom inh cell count
O=C(CN(c1cccc(C(F)(F)F)c1)S(=O)(=O)c1ccc(Cl)c([N+](=O)[O-])c1)NCc1ccccc1Cl	-10.2	49.5	0.51	0.6	-10.7	i	80.8
CCc1c(C(C)S(=O)(=O)c2ccc(C)cc2)[nH]c(=O)n1-c1ccc(OC(F)(F)F)cc1 (stereo not drawn)	-4.8	66.2	1.04	-1.1	-26.7	i	105.4

Next section
SMILES	PKD1 kinase inh	RGS16-Gao	HSV augment primary fold	GALR2 agonist	Insulin prom inh	HSV augment	Insulin prom inh cell count
O=C(O)c1ccccc1C(=O)Nc1n[nH]c(=S)s1	2.4	107.5	0.95	-3.4	/	i	/
Cc1cc(C)c(S(=O)(=O)N(C)Cc2cnn(C)c2)c(C)c1	-8.8	102.6	0.9	-1.4	-158.3	i	47.2
Cc1ccc(/C=N/Nc2nc3ccccc3s2)o1	-5.6	112.0	0.98	-0.6	50.0	i	162.1
COc1ccc(C2=NOC(C(=O)NCc3ccc(F)cc3)C2)cc1OC (stereo not drawn)	-0.5	106.3	/	10.4	0.0	/	3.5
O=[N+]([O-])c1ccc(CSc2nc3ncc(Br)cc3[nH]2)cc1	/	97.5	1.04	/	/	i	/
C[C@H](N)c1nnc(SCc2ccc(Cl)cc2Cl)o1	-16.0	106.5	0.93	0.4	/	i	/
COCC(=O)NNC(=S)Nc1cccc(C)c1C	-2.6	90.6	1.01	/	/	i	/
COc1ccccc1N=Cc1c(C)[nH]n(-c2ccc(C)cc2C)c1=O	4.5	107.5	0.87	/	-7.7	i	88.6
COc1cccc(N2C(=O)CC(NNc3nc4ccccc4s3)C2=O)c1 (stereo not drawn)	/	95.8	0.98	/	/	i	/
Clc1ccccc1-c1nnc2sc(-c3ccc4c(c3)OCO4)nn12	1.7	75.2	0.88	-0.3	-55.3	i	53.8
Nc1nc(SCC(=O)Nc2ccc3c(c2)CCC3)n[nH]1	10.4	104.2	0.98	-0.2	40.0	i	123.6
O=C(CSc1nnc(Cc2ccccc2)o1)Nc1ccc(Br)cn1	-12.8	103.0	0.66	-1.9	63.6	i	104.4
CC(C)C12CN3CC(C(C)C)(CN(C1)C31C(=O)Nc3ccccc31)C2=O (stereo not drawn)	-10.9	103.1	1.01	-2.2	/	i	/
CC(C)(C)c1ccc(C2C(C#N)=C(N)Oc3n[nH]c(-c4cccnc4)c32)cc1 (stereo not drawn)	/	92.4	1	/	/	i	/
O=c1c2nncn2c2cc(C(F)(F)F)ccc2n1CCNc1ncc(C(F)(F)F)cc1Cl	/	97.3	0.9	/	/	i	/
CS(=O)(=O)N1CCN(C2C3CC4CC(C3)CC2C4)CC1 (stereo not drawn)	1.7	103.4	1.05	/	/	i	/
O=C(O)CCCCNCc1ccccc1	1.9	99.1	0.82	1.8	26.9	i	111.5
